Source: PubChem BioAssay
Bm FixLJ act = B. multivorans fixK reporter activation | B. multivorans fixK-promoter GFP reporter, 18 h; hits give high values | z-score (no concentration beside the values) | actives 0.3% (n = 29,000) | AID 1918990;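 active means replicate mean overnight rise in green fluorescent reporter signal, 3 or more SD over negative controls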;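 further: score is relative to vehicle wells of the plate; 300 nL library stock went into each well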
* = called active by the depositor; & = joins results of further samples.

SMILES	Bm FixLJ act
Nc1c2ccccc2nc2ccccc12	-1.05
COc1ccc(-c2cc(C(F)F)nn2-c2ccc(S(N)(=O)=O)cc2)cc1F	-2.83
CCN(CCCCOC(=O)c1ccc(OC)c(OC)c1)C(C)Cc1ccc(OC)cc1 (stereo not given)	-1.61
Cc1nc2c3ccccc3nc(NNC(=O)CCC(=O)N3CCN(c4ccccc4F)CC3)n2n1	-0.66
CC(C)NNC(=O)c1ccncc1	-4.48
CN(C)c1ccc2nc3ccc(=[N+](C)C)cc-3sc2c1	2.37
CN[C@@H]1[C@H](O)[C@H](NC)[C@H]2O[C@@]3(O)C(=O)C[C@@H](C)O[C@H]3O[C@@H]2[C@H]1O	-1.51&1.01
Cc1cccc(Cc2c(C)nc3c(-c4ccccc4)c(C)[nH]n3c2=O)c1	-0.03
COC(=O)c1ccccc1O	-1.36
CC[C@@H]1OC(=O)C[C@@H](O)[C@H](C)[C@@H](O[C@@H]2O[C@H](C)[C@@H](O)[C@H](N(C)C)[C@H]2O)[C@@H](CCN2C[C@H](C)C[C@H](C)C2)C[C@@H](C)C(=O)/C=C/C(C)=C\[C@@H]1CO[C@@H]1O[C@H](C)[C@@H](O)[C@@H](OC)[C@H]1OC	0.29
CN(C)S(=O)(=O)n1cc(/C=C(\NC(=O)c2ccccc2)C(=O)NCCCn2ccnc2)c2ccccc21	-1.96
Cc1c(Cl)cccc1NC(=O)Cn1cc(C(=O)C2CCCCC2)c2ccccc21	0.15

Shown in markdown: 2 of the compounds above
| SMILES | Bm FixLJ act |
| --- | --- |
| CN[C@@H]1[C@H](O)[C@H](NC)[C@H]2O[C@@]3(O)C(=O)C[C@@H](C)O[C@H]3O[C@@H]2[C@H]1O | -1.51&1.01 |
| Cc1nc2c3ccccc3nc(NNC(=O)CCC(=O)N3CCN(c4ccccc4F)CC3)n2n1 | -0.66 |

Next section
SMILES	Bm FixLJ act
Cc1ccccc1OCC(O)CO (stereo not given)	-0.46
COc1ccc(C(=O)c2ccccc2)c(O)c1	0.86
CN(C)CC/C=C1/c2ccccc2COc2ccc(CC(=O)O)cc21	-1
N=c1nc(N2CCCCC2)cc(N)n1O	-1.03&-0.3
CCCOc1ccc2nc(NC(=O)OC)[nH]c2c1	-1.53
Cc1scc2c1N(C(=O)CN1CCN(C)CC1)c1ccccc1NC2=O	-2.34
CCOC(=O)c1ccc(NC(=O)c2cc(=O)c3ccc(C)c(C)c3o2)cc1	-2.01
O=C(O)Cc1sc(-c2ccccc2)nc1-c1ccc(Cl)cc1	-0.93
COC(=O)C1=C(C)NC(C)=C(C(=O)OCCN2CCN(C(c3ccccc3)c3ccccc3)CC2)C1c1cccc([N+](=O)[O-])c1 (stereo not given)	-1.1
CC(C)(C)NCC(O)COc1cccc2c1C[C@H](O)[C@H](O)C2 (stereo not given in full)	-0.42
CCn1cc(C(=O)O)c(=O)c2cc(F)c(N3CCNC(C)C3)c(F)c21 (stereo not given)	-3.95&-3.22
CCOc1ccc2nc(N3CCC(C(=O)Nc4ccccc4CC)CC3)sc2c1	-1.39
C=CCN1C[C@H](C(=O)N(CCCN(C)C)C(=O)NCC)C[C@@H]2c3cccc4[nH]cc(c34)C[C@H]21	0.5
O=C1c2c(O)ccc(O)c2C(=O)c2c(NCCNCCO)ccc(NCCNCCO)c21	-2.03&-0.07
CCCCN(CCCC)CCCOC(=O)c1ccc(N)cc1	0.37
CC(C)OCc1cc(CN2CCN(c3ccccc3)CC2)c(O)c2ncccc12	0.82
COC(=O)N/N=C/c1c[n+]([O-])c2ccccc2[n+]1[O-]	-1.87&2.72
CC1(C)O[C@@H]2C[C@H]3[C@@H]4C[C@H](F)C5=CC(=O)C=C[C@]5(C)[C@@]4(F)[C@@H](O)C[C@]3(C)[C@]2(C(=O)CO)O1	-0.95
CN(C)CCCSc1ccccc1NC(=O)/C=C/c1ccccc1	-1.65

Another view of some results above:
| Compound | Bm FixLJ act |
| --- | --- |
| Cc1scc2c1N(C(=O)CN1CCN(C)CC1)c1ccccc1NC2=O | -2.34 |
| CCOC(=O)c1ccc(NC(=O)c2cc(=O)c3ccc(C)c(C)c3o2)cc1 | -2.01 |
| O=C(O)Cc1sc(-c2ccccc2)nc1-c1ccc(Cl)cc1 | -0.93 |
| COC(=O)C1=C(C)NC(C)=C(C(=O)OCCN2CCN(C(c3ccccc3)c3ccccc3)CC2)C1c1cccc([N+](=O)[O-])c1 (stereo not given) | -1.1 |
| CC(C)(C)NCC(O)COc1cccc2c1C[C@H](O)[C@H](O)C2 (stereo not given in full) | -0.42 |
| CCn1cc(C(=O)O)c(=O)c2cc(F)c(N3CCNC(C)C3)c(F)c21 (stereo not given) | -3.95&-3.22 |
| CCOc1ccc2nc(N3CCC(C(=O)Nc4ccccc4CC)CC3)sc2c1 | -1.39 |
| C=CCN1C[C@H](C(=O)N(CCCN(C)C)C(=O)NCC)C[C@@H]2c3cccc4[nH]cc(c34)C[C@H]21 | 0.5 |
| O=C1c2c(O)ccc(O)c2C(=O)c2c(NCCNCCO)ccc(NCCNCCO)c21 | -2.03&-0.07 |
| CCCCN(CCCC)CCCOC(=O)c1ccc(N)cc1 | 0.37 |
| CC(C)OCc1cc(CN2CCN(c3ccccc3)CC2)c(O)c2ncccc12 | 0.82 |
| COC(=O)N/N=C/c1c[n+]([O-])c2ccccc2[n+]1[O-] | -1.87&2.72 |
| CC1(C)O[C@@H]2C[C@H]3[C@@H]4C[C@H](F)C5=CC(=O)C=C[C@]5(C)[C@@]4(F)[C@@H](O)C[C@]3(C)[C@]2(C(=O)CO)O1 | -0.95 |
| CN(C)CCCSc1ccccc1NC(=O)/C=C/c1ccccc1 | -1.65 |

A portion of the library; count on the stated rates, not on these rows.
